# Screening results: PubChem, several laboratories
# CSC inhib: cancer stem cell inhibition | cancer stem cell-like cells viability, luminescence | inhibition, % at 7.5 µM | hit rate 1.1% among 300,000;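 active = mean at 75% or more and at least half the replicates too; tested in HMLE shEcad cells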;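 also: 0% = median of negative and 100% = median of positive control wells; the first replicate is given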
# Rce1 inhib: blocks yeast Ras-converting enzyme; Q03530; yeast membranes, quenched prenylated peptide cleavage fluorescence; calls only; hit rate 0.27% among 290,000; AID 2563;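 active = fall in fluorescence gain of 50% or more versus controls, with final raw signal at or below 3038400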;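 also: plate controls were neutral control wells for no effect and wells lacking membranes for full effect; tested at 10 µM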
# Target sequence (Q03530 whole entry, looked up): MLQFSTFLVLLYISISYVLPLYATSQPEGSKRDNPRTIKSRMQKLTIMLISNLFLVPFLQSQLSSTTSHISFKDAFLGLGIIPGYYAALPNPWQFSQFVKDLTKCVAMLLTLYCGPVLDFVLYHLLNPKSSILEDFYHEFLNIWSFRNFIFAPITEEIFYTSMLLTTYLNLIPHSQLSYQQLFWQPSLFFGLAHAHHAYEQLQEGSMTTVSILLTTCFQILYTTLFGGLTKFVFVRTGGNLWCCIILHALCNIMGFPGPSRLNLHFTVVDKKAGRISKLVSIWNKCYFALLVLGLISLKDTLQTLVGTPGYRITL
# Yeast UUG start: yeast start codon fidelity modulation. S. cerevisiae UUG-firefly luciferase reporter, luminescence/redox ratio. activity score, % at 18.7 µM. hit rate 0.13% among 350,000;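 active = replicate mean at a twofold rise or more, about +100% in these data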;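 also: firefly luciferase made from a UUG start codon reports start codon fidelity; reporter light over untreated wells divided by growth signal over untreated wells; some hits fall short of that in this replicate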
# PABP FP inh: blocks human PABP binding to poly(A) RNA. P11940. fluorescence polarization. inhibition, % at 35 µM. hit rate 1% among 290,000;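 active = 50% or more with normal probe brightness, or confirmed in later tests; about a fifth of its hits are not listed in these tables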;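 also: calls also rest on retests at 20 µM and on dose response follow-up; controls were probe without protein and protein plus probe with vehicle; some compounds called inactive have numbers as strong as hits; many hits fall short of the cut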
# MT1-MMP act inh: inhibitors of human MT1-MMP activation; HT1080 RFP-PRO-GFP cells, GFP/RFP ratio fluorescence, overnight; percent of plate control window, DMSO zero; GFP/RFP ratio change, % at 20 µM; hit rate 0.061% among 360,000; P50281;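 active = GFP/RFP ratio change of at least 30% with cell ATP level not reduced by more than half and red fluorescence within 50% of control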; also: strong numbers were not always called active
#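 Material – HT1080 RFP-PRO-GFP cells · Control set – DMSO wells and RFP-L50D-GFP cells · Incubation – overnight cell settling, then overnight compound exposure, 37 °C, 5% CO2 · Compound dosing – single-point 20 µM compound, 1% DMSO · Read-out – GFP/RFP fluorescence ratio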
# HIV Env fusion: blocks HIV Env-driven cell-cell fusion. inhibition, % at 12.3 µM. HeLa-JRFL Env/CEM21 cell fusion, luciferase. AID 651610. hit rate 1.1% among 360,000;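 active = mean replicate inhibition score of at least 50 and every replicate individually at or above 50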;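 also: 0% = plate neutral controls and 100% = maraviroc near 300 nM; one replicate is shown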
# eIF4H FP inh: inhibitors of RNA binding by human eIF4H; Q15056; eIF4H fluorescence polarization binding assay; inhibition, % at 35 µM; hit rate 0.94% among 290,000;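 active = 50% or more with normal probe brightness, or confirmed in later tests; about a fifth of its hits are not listed in these tables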;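 also: calls also rest on retests at 20 µM and on dose response follow-up; 0% = protein and probe with vehicle and 100% = probe without protein; strong numbers were not always called active; many hits fall short of the cut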
# eIF4H FP inh retest: second read-out of eIF4H FP inh, no call of its own (marks repeat the call); inhibition, %; compound at 20 µM; confirmation average;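 mean of two retest wells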
# PABP FP inh retest: further read-out of PABP FP inh, marked with its call; inhibition, %; compound at 20 µM; confirmation repeats;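 mean of two retest wells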
# MT1-MMP act inh RFP: second read-out of MT1-MMP act inh, no call of its own (marks repeat the call); RFP signal change, %; measured here: RFP expression control read;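 0 = vehicle wells; hits needed this value within 50% of zero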
# * = called active by the depositor; i = inactive; nt = not tested or not shown; & = joins results of further samples. Not all compounds are listed; the hit share may differ from the screen's.
# A first look, three compounds:
SMILES,CSC inhib,Rce1 inhib,Yeast UUG start,PABP FP inh,MT1-MMP act inh,MT1-MMP act inh RFP,HIV Env fusion,eIF4H FP inh,others
O=C(c1cccs1)N1CCCC(c2nc3c(nnn3Cc3c(Cl)cccc3Cl)c(=O)[nH]2)C1 (stereo not given),-15,i,11,-1,1,0,-6,-8,
c1ccc(CCN=C2CCCc3c2[nH]c2ccccc32)cc1,-4,i,-8,10,-3,6,-42,-5,
Cc1nc(-c2ccccc2)nc(-c2ccccc2)n1,-3,i,-30,nt,-6,0,17,nt,

# The list itself, from the first entry:
SMILES,CSC inhib,Rce1 inhib,Yeast UUG start,PABP FP inh,MT1-MMP act inh,MT1-MMP act inh RFP,HIV Env fusion,eIF4H FP inh,others
O=C(c1cccs1)N1CCCC(c2nc3c(nnn3Cc3c(Cl)cccc3Cl)c(=O)[nH]2)C1 (stereo not given),-15,i,11,-1,1,0,-6,-8,
c1ccc(CCN=C2CCCc3c2[nH]c2ccccc32)cc1,-4,i,-8,10,-3,6,-42,-5,
Cc1nc(-c2ccccc2)nc(-c2ccccc2)n1,-3,i,-30,nt,-6,0,17,nt,
Cc1ccc(S(=O)(=O)NC2CCC(C(=O)O)CC2)cc1 (stereo not given),-13,i,-5,0,7,1,-23,-7,
COc1cccc(OC)c1OCCCOc1ccc(C)cc1Br,7,i,-11,63,-6,-4,7,-9,eIF4H FP inh retest=-5;PABP FP inh retest=10
COc1cccc(C(=O)Nc2ccc(NC(=O)Cc3ccccc3)cc2)c1,1,i,10,-2,4,0,2,-4,
COc1cccc(-c2ccc3ncnc(NCc4cccc(C)c4)c3c2)c1,45,nt,-5,nt,-8,-3,nt,nt,
CCc1nn2c(=O)cc(COc3ccc(/C=C4\C(=N)N5N=C(CC(C)C)SC5=NC4=O)cc3)nc2s1,5,i,nt,12,nt,nt,nt,17,
Cc1ccc(S(=O)(=O)n2c([N+](=O)[O-])cnc2C)c(C)c1C,nt,i,nt,-5,3,6,-10,-4,
CCOc1ccc(C(=O)NCC(=O)OCCCOC(=O)CNC(=O)c2ccc(OCC)cc2)cc1,nt,i,3,-11,0,3,nt,3,
COc1cccc(C(c2nnnn2C2CCCC2)N2CCN(C/C=C/c3ccccc3)CC2)c1OC (stereo not given),nt,nt,0,nt,-1,-4,-10,nt,
CCOC(=O)c1c(C)[nH]c(C)c1C(=O)CSc1nnc(-c2ccco2)n1Cc1ccccc1,-5,i,-8,7,2,0,-82,4,
CCCCOC(=O)c1ccc(NC(=S)N2CCN(c3ncc4c(=O)c(C(=O)O)cn(CC)c4n3)CC2)cc1,21,i,-9,-2,-1,-35,-3,-6,
Cc1nnc(SCC(=O)Nc2ccccc2)c2ccccc12,2,i,-6,-11,2,0,-4,4,
Cc1cc(=O)oc2cc(NC(=O)c3cccc(F)c3)ccc12,4,i,-15,-25,-1,-2,-54,-32,
Nc1n[nH]c2c1C1(CCCCC1)Cc1ccccc1-2,-10,i,-22,-7,-6,-4,22,0,
COc1ccc(CNC(=O)C2CCCN2S(=O)(=O)c2ccc(S(=O)(=O)N(C)C)cc2)cc1 (stereo not given),0,i,nt,-16,1,1,-47,-3,
COc1ccccc1CCC(=O)Nc1cc(S(=O)(=O)N2CCOCC2)ccc1N1CCCC1,-1,i,13,nt,-1,1,i,nt,
COc1cccc(-c2nc3ccccc3s2)c1,-2,i,-12,5,-3,5,nt,6,
CCOC(=O)C1=C(COC(=O)COc2ccccc2C#N)NC(=O)NC1C (stereo not given),nt,i,nt,nt,0,1,-3,nt,
O=C(NCCc1c[nH]c2ccccc12)/C(=C/c1cccnc1)NC(=O)c1cccs1,21,i,nt,-6,-4,2,-1,6,
O=C(CSc1ccc2nnc(CCNC(=O)c3ccccc3)n2n1)NC1CCCC1,-18,i,-21,1,-5,-3,3,-10,
Cc1c(C)n(C(=O)CSc2ncn[nH]2)c2ccccc12,-1,i,-11,2,6,4,nt,-10,
O=C(NCc1n[nH]c(=S)n1-c1ccc(Br)cc1)c1ccc(S(=O)(=O)N2CCCCC2)cc1,-5,nt,-20,-16,3,0,20,7,
CCN(C(=O)COc1cc(=O)n(CC)c2ccccc12)c1cccc(Cl)c1,nt,i,-8,-2,6,-2,-10,0,
COc1cc(NC(=O)CCC(=O)O)nc(OC)n1,-13,i,4,-2,-2,1,-22,6,
COC(=O)c1cccc(NC(=O)COC(=O)CSc2nc(C)cc(C)n2)c1,18,i,-4,2,-2,-4,-72,11,
Cc1ccc(S(=O)(=O)N2CCN(CC(=O)N/N=C\C(Cl)=C\c3ccccc3)CC2)cc1,11,i,nt,-13,2,2,0,-1,
CCOC(=O)Cn1c(S(=O)(=O)Cc2ccc(F)cc2)nc(-c2ccccc2)c1-c1ccccc1,20,i,-22,-8,-6,-11,-4,-3,
COCC(C)n1c(=O)sc2ccccc2c1=O (stereo not given),7,i,nt,-3,0,0,-5,-6,

# Grouped by structure: the entries above containing a thiophene ring, fused or not.
SMILES,CSC inhib,Rce1 inhib,Yeast UUG start,PABP FP inh,MT1-MMP act inh,MT1-MMP act inh RFP,HIV Env fusion,eIF4H FP inh,others
O=C(c1cccs1)N1CCCC(c2nc3c(nnn3Cc3c(Cl)cccc3Cl)c(=O)[nH]2)C1 (stereo not given),-15,i,11,-1,1,0,-6,-8,
O=C(NCCc1c[nH]c2ccccc12)/C(=C/c1cccnc1)NC(=O)c1cccs1,21,i,nt,-6,-4,2,-1,6,

# Next part:
SMILES,CSC inhib,Rce1 inhib,Yeast UUG start,PABP FP inh,MT1-MMP act inh,MT1-MMP act inh RFP,HIV Env fusion,eIF4H FP inh,others
COC(=O)c1ccc(CN2CCC(n3nccc3NC(=O)C3CCCC3)CC2)cc1,24,i,-6,8,2,0,-28,-1,
O=C(NC(=S)N1CCN(c2ccc([N+](=O)[O-])cc2)CC1)c1ccccc1Cl,4,i,nt,-4,5,0,-2,6,
C=CCOc1ccc(C(=O)Nc2ccccc2C(=O)N2CCCC2)cc1,nt,i,-5,2,-2,-4,-2,0,
O=C(c1cc2ccccc2oc1=O)N1CCOCC1,-7,i,-21,-7,-3,-2,-5,-2,
O=C(NCCCl)Nc1cccnc1Cl,-10,i,nt,25,2,1,0,-8,
Cc1cccc(NCN2C(=O)c3ccncc3C2=O)n1,-2,i,-20,11,-3,4,nt,-14,
CS(=O)(=O)N1CCC(C(=O)Nc2ccc(F)cc2F)CC1,-1,i,-17,4,10,13,nt,1,
O=C(NCc1ccccc1)C1=C[C@@H](c2ccccc2)C[C@@H](OCCCCO)O1,-5,i,4,nt,-6,-3,-39,nt,
COc1ccc(CCN(C)C(=O)C2CCN(Cc3ccccc3)CC2)cc1OC,-11,i,-9,5,3,10,6,-2,
CCC1CCCCN1C(=O)Cn1c(=O)oc2ccccc21 (stereo not given),3,i,-11,-8,1,2,nt,7,
COc1ccc(/C=N/NC(=S)NC2CCS(=O)(=O)C2)cc1OC (stereo not given),3,i,-27,-9,-5,-2,-42,6,
CCOC(=O)N1CCC(NC(=O)Cn2ncc3c4ccccc4n(C)c3c2=O)CC1,nt,i,-10,-5,1,7,nt,-5,
O=C(Nc1ccc2ccccc2c1[N+](=O)[O-])c1ccccc1,nt,nt,-14,nt,3,-1,-139,nt,
COc1ccc(N2C(=O)CCC2(C#N)c2ccc(OC)cc2)cc1 (stereo not given),2,i,-3,3,3,6,-6,3,
O=C(COC(=O)c1ccco1)Nc1ccc2c(c1)OCO2,nt,i,-8,4,4,7,nt,-1,
CC(=O)Nc1ccc(Oc2ncccn2)c(Cl)c1,-12,i,12,-6,-1,0,nt,-8,
Cc1ccc(C(=O)CN(Cc2ccccc2)C2=NCCS2)cc1,-5,i,-19,-4,0,0,-9,-8,
Cc1cc(N/N=C/c2ccccc2Br)nc2ccccc12,-1,i,nt,5,3,2,-44,-6,
CCOC(=O)C1=C(c2ccccc2)NC(=O)NC1c1ccc(O)c(OCC)c1 (stereo not given),-19,i,-9,-5,-3,3,-17,-6,
COc1cc(/C=C(\NC(C)=O)C(=O)NC(C)(C)CC(C)(C)C)ccc1OC(C)=O,-1,i,nt,5,1,0,16,-6,
C[C@@H]1CN([C@H](C)CO)C(=O)c2cc(Br)cnc2O[C@H]1CN(C)C(=O)c1ccccc1,nt,nt,6&9&33,nt,8,3,11,nt,
c1ccc(OCc2nn3c(Cn4cnc5ccccc54)nnc3s2)cc1,2,i,-25,-3,0,-6,nt,1,
COc1ccc(C(c2nnnn2Cc2ccccc2)N2CCN(C(=O)c3ccco3)CC2)cc1 (stereo not given),6,i,-22,3,-4,3,nt,-12,
CC(=O)OC1COC(OC(C)=O)CO1 (stereo not given),nt,nt,6,nt,16,-1,-29,nt,
CCC1(C)Cc2c(sc3nnn(CC(=O)Nc4ccc(C)cc4)c(=O)c23)CO1 (stereo not given),nt,i,-5,-2,-4,-1,0,-4,
Cc1cccc(NS(=O)(=O)c2nnc(NC(=O)c3cccc(C)c3)s2)c1,7,i,-13,2,4,0,3,-6,
OC[C@@H]1CN(Cc2cccs2)C[C@H](n2cnc3c(N4CCCC4)ncnc32)O1,nt,nt,-3,nt,0,3,8,nt,
COc1cccc(CNC(=O)c2ccc(NS(=O)(=O)c3ccc4[nH]c(=O)[nH]c4c3)cc2)c1,-16,nt,-9,nt,0,4,-33,nt,
O=C1CCCN2N=C(SCC(=O)Nc3ccc(F)cc3F)SC2=N1,nt,i,-16,2,1,-5,1,25,
O=C(CN1C(=O)NC2(CCCCC2)C1=O)N1CCN(S(=O)(=O)c2ccccc2)CC1,nt,i,-12,-4,8,8,3,-10,

# Continued; it opens with the two that closed the last part.
SMILES,CSC inhib,Rce1 inhib,Yeast UUG start,PABP FP inh,MT1-MMP act inh,MT1-MMP act inh RFP,HIV Env fusion,eIF4H FP inh,others
O=C1CCCN2N=C(SCC(=O)Nc3ccc(F)cc3F)SC2=N1,nt,i,-16,2,1,-5,1,25,
O=C(CN1C(=O)NC2(CCCCC2)C1=O)N1CCN(S(=O)(=O)c2ccccc2)CC1,nt,i,-12,-4,8,8,3,-10,
CN(Cc1cccc(F)c1)C(=O)CSc1nnnn1C1CC1,nt,nt,-5,nt,4,2,-51,nt,
COc1ccccc1/C=N\Nc1cn[nH]c(=O)c1Cl,5,i,nt,-3,1,3,25,-3,
CCn1c(CNc2ccc(F)cc2)nnc1SCC(=O)OC1CCCCC1,-16,i,-24,-4,4,1,-24,-11,
CCCN1C(=O)C(Cc2nc3ccccc3c(=O)n2-c2ccccc2)c2cc(C)ccc21 (stereo not given),-1,i,20,-5,3,-4,nt,-1,
CC1CC(C)CN(C(=O)c2cccc(S(=O)(=O)NCc3ccccc3)c2)C1 (stereo not given),-7,nt,-3,nt,3,1,nt,nt,
